Screens as filed in PubChem BioAssay.
HNF4A DNA FP = change in binding of human HNF4 alpha to DNA; P41235; HNF4a-FITC DNA binding, fluorescence polarization, 1 h; activity change, % at 10 µM; 0.3% of 360,000 active; AID 1224865; in the data active = activity change above about 30%, passing the limit was not always enough;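 note: controls were the assay level and a saturating level of protein; the project sought stronger binding though the title names inhibitors; some compounds called inactive have numbers as strong as hits; positive values seem to mean higher polarization but the record does not say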
E coli growth = inhibitors of Escherichia coli growth; 0.21% of 330,000 active; OD600, 23 h; hits give low values; OD600 absorbance (no concentration beside the values); AID 1053175;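 active = OD600 absorbance below the run mean of sample wells minus 3.6 SD, in any replicate, cut at about 0.56 in these data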;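 note: stock transfer was 300 nL into about 60 µL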
ALR H2O2 inh = blocks human ALR sulfhydryl oxidase activity; P55789; purified ALR, DTT oxidation, H2O2 HRP-luminol luminescence; inhibition, % (concentration not given with the values); 3.8% of 290,000 active;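 active = mean and each replicate at 75% or more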;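 note: stock transfer was 7.5 nL into about 7.5 µL; 0% = neutral wells and 100% = wells with inactivated enzyme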
LANA-H2A inh = blocks KSHV LANA binding to histone H2A/H2B | Q9QR71 | cell-free LANA-H2A/H2B peptide, fluorescence polarization | inhibition, % (concentration not given with the values) | 0.6% of 320,000 active; in the data active = inhibition mostly above about 10%, no sharp cut-off; inactive = mostly below about 6.7%;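 note: stock transfer was 7.5 nL into about 10 µL; 0% = median of vehicle wells and 100% = median of positive control wells; one replicate is shown; the record names a cut of 25% in any replicate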
Beta2AR agonist = activates human beta-2 adrenergic receptor causing internalization; P07550; Am2.2-beta2AR cells, FAP receptor internalization, flow cytometry; reference of the scale not given here; response, % (concentration not given with the values); 0.43% of 340,000 active; AID 504454;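 active = response above a set limit, near 3 SD of response in nonfluorescent compounds, cut at about 42% in these data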;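 note: stock transfer was 100 nL into about 11 µL; a reference agonist was the positive control; negative values mostly stem from fluorescent compounds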
Target sequence (P07550 whole entry, looked up): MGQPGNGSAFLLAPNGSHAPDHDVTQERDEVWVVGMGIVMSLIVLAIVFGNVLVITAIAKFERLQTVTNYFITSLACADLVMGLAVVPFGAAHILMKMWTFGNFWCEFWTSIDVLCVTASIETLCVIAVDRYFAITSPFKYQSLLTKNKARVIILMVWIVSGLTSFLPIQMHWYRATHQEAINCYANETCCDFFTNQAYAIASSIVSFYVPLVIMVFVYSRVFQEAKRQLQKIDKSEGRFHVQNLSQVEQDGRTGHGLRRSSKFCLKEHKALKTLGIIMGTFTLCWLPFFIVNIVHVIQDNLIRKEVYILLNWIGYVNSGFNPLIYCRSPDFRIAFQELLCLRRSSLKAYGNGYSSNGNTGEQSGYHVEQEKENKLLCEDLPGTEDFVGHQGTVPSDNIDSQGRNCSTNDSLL
UCH37 DUB inh = inhibitors of human deubiquitinating enzyme UCH37; inhibition, % (no concentration beside the values); AID 588478; purified proteasome/UCH37, Ub-AMC cleavage fluorescence; 0.33% of 330,000 active; Q9Y5K5;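 active = mean of two replicates above 20%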;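 note: 0% = compound-free wells with enzyme and 100% = wells lacking proteasome; stock transfer was 100 nL into about 20 µL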
Target sequence (Q9Y5K5 whole entry, looked up): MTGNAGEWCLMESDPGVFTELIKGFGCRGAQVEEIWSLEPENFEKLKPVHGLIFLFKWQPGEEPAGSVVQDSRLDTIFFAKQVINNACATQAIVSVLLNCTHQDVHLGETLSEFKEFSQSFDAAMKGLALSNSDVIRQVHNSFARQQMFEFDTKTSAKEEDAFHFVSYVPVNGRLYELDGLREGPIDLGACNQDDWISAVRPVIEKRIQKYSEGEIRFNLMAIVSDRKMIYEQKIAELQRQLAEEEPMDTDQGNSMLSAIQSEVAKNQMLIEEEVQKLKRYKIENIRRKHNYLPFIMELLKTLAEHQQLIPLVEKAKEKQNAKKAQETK
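Material: human UCH37 enzyme supplied as purified proteasome complex. Measure: % inhibition of Ub-AMC cleavage fluorescence. Medium: pH 7.4 Tris-HCl (50 mM) with ovalbumin, ATP-MgCl2, DTT. Times: 30 min preincubation with enzyme, 25 min cleavage at room temperature. Detection: AMC fluorescence intensity at 355/460 nm.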
FGF22 binding = shifts melting point of recombinant human FGF22; recombinant FGF22 thermal shift, SYPRO orange fluorescence; percent of sucrose octasulfate shift, DMSO zero; calls only at 9.99 µM; 1.5% of 340,000 active;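 active = melting point raised past a set limit in the mean and every replicate; three in four hits are not shown here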
Target sequence (Q9HCT0 whole entry, looked up): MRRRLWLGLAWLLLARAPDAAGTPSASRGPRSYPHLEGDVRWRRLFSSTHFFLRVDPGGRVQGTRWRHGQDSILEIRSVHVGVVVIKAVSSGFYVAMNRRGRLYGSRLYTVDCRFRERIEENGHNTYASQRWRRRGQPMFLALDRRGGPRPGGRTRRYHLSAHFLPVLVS
* hit, by the source's call; i = inactive; x = not tested or not shown.

cpd	compound	HNF4A DNA FP	E coli growth	ALR H2O2 inh	LANA-H2A inh
1	Cc1c(C(=O)Nc2ccccc2C(=O)N2CCCC2)cccc1[N+](=O)[O-]	1.1	0.65	-17	-7.2
2	O=C(c1ccc(-n2cnnn2)cc1)N1CCCCC1	-0.2	0.65	0	-1.2
3	O=C(O)c1cccnc1SCc1cccc(Cl)c1	-0.2	0.67	41	-2.5
4	Nc1nonc1-n1nnc(C(=O)N/N=C/c2cccnc2)c1-c1cccs1	-2.0	x	-4	6.6
5	Cc1sc2ncnc(SCC(=O)c3ccc(O)cc3O)c2c1C	2.7	0.71	x	-3.8
6	COc1cc2c(cc1NC(=S)Nc1ccccc1C)oc1ccccc12	-0.7	0.71	61	5.3
7	CN1CCN(C(c2cccc(C(F)(F)F)c2)c2nnnn2Cc2ccccc2)CC1 (centres undefined)	-3.9	0.7	-11	0.6
8	N/C(=N\N=C\c1cccs1)SC1CC(=O)N(c2cccc([N+](=O)[O-])c2)C1=O (centres undefined)	-3.3	x	8	-4.4
9	O=C(CSc1nc2ccccc2[nH]1)c1cccs1	3.2	0.68	64	-6.9
10	Cc1cccc(NC(=S)NCc2ccncc2)c1C	-0.5	0.68	-4	-4.4

cpd	Beta2AR agonist	UCH37 DUB inh	FGF22 binding
1	0	1.5	i
2	-7	0.1	x
3	2	3.1	i
4	-11	x	i
5	-2	2.9	i
6	5	-8.2	x
7	6	3.7	x
8	5	x	i
9	-4	2.6	x
10	-21	1.2	i

Sorted by molar mass (low to high): 3 of the compounds above.
cpd	compound	HNF4A DNA FP	E coli growth	ALR H2O2 inh	LANA-H2A inh
2	O=C(c1ccc(-n2cnnn2)cc1)N1CCCCC1	-0.2	0.65	0	-1.2
10	Cc1cccc(NC(=S)NCc2ccncc2)c1C	-0.5	0.68	-4	-4.4
6	COc1cc2c(cc1NC(=S)Nc1ccccc1C)oc1ccccc12	-0.7	0.71	61	5.3

cpd	Beta2AR agonist	UCH37 DUB inh	FGF22 binding
2	-7	0.1	x
10	-21	1.2	i
6	5	-8.2	x

The list continues.
cpd	compound	HNF4A DNA FP	E coli growth	ALR H2O2 inh	LANA-H2A inh
11	O=C(NCC1CCCO1)/C(=C\c1ccc(Cl)cc1)NC(=O)c1ccccc1 (centres undefined)	0.2	x	-3	6.4
12	CCOC(=O)c1ccccc1NS(=O)(=O)c1cnn(CC)c1C	-1.1	0.66	-3	9.8
13	COc1ccc(Nc2cc(C(=O)NCc3ccccn3)c3ccccc3n2)c(OC)c1	x	0.68	35	8.9
14	COC(=O)c1ccc(C(=O)OC)c(NC(=O)CCS(=O)(=O)Cc2ccccc2)c1	-5.8	0.7	0	-1.8
15	COc1cccc(CN(C)C(=O)c2sccc2-c2ccccc2)c1OC	-1.9	0.73	0	6.9
16	Cc1nc(C(=O)Nc2ccc(Cl)cc2)nn1-c1ccc([N+](=O)[O-])cc1	-2.8	0.72	-8	1.8
17	Cc1ccc(NC(=S)Nc2ccccn2)cc1C	2.5	0.71	23	-4.0
18	CCC(=O)N1CCc2cc(S(=O)(=O)NC(CC(C)C)C(=O)N3CCc4ccccc43)ccc21 (centres undefined)	0.1	0.64	-15	-4.3
19	O=C(CCc1nnc(CCCc2ccccc2)o1)NCCc1ccccc1	-0.2	0.71	1	-0.1
20	COc1ccc(Nc2nc(N)nc(CSC(=S)N3CCC(C)CC3)n2)cc1	0.0	0.74	x	-11

cpd	Beta2AR agonist	UCH37 DUB inh	FGF22 binding
11	-6	-0.7	x
12	-1	1.2	i
13	x	5.3	x
14	4	-19	i
15	0	5.1	i
16	-9	-0.3	x
17	-5	2.7	i
18	-5	1.2	x
19	-11	0.6	i
20	-14	5.1	x

No new results follow: an excerpt of the list.
cpd	compound	HNF4A DNA FP	E coli growth	ALR H2O2 inh	LANA-H2A inh
11	O=C(NCC1CCCO1)/C(=C\c1ccc(Cl)cc1)NC(=O)c1ccccc1 (centres undefined)	0.2	x	-3	6.4
12	CCOC(=O)c1ccccc1NS(=O)(=O)c1cnn(CC)c1C	-1.1	0.66	-3	9.8
13	COc1ccc(Nc2cc(C(=O)NCc3ccccn3)c3ccccc3n2)c(OC)c1	x	0.68	35	8.9
14	COC(=O)c1ccc(C(=O)OC)c(NC(=O)CCS(=O)(=O)Cc2ccccc2)c1	-5.8	0.7	0	-1.8
15	COc1cccc(CN(C)C(=O)c2sccc2-c2ccccc2)c1OC	-1.9	0.73	0	6.9

cpd	Beta2AR agonist	UCH37 DUB inh	FGF22 binding
11	-6	-0.7	x
12	-1	1.2	i
13	x	5.3	x
14	4	-19	i
15	0	5.1	i

Back to the main list with the two entries that preceded the break.
cpd	compound	HNF4A DNA FP	E coli growth	ALR H2O2 inh	LANA-H2A inh
19	O=C(CCc1nnc(CCCc2ccccc2)o1)NCCc1ccccc1	-0.2	0.71	1	-0.1
20	COc1ccc(Nc2nc(N)nc(CSC(=S)N3CCC(C)CC3)n2)cc1	0.0	0.74	x	-11
21	Cc1ccc(-c2csc(N3CCN(c4ccc5nc(-c6ccncc6)n(CCN6CCCCC6)c5c4)CC3)n2)cc1	19	0.7	-25	3.3
22	CS(=O)(=O)N(CC(=O)N/N=C/c1ccco1)c1ccccc1Br	-1.0	x	2	-1.1
23	COc1ccc(CCNc2ccncn2)cc1OC	0.9	0.66	-2	-3.7
24	CN=C1N(C)C[C@@H]2[C@@H]3C(=O)N(Cc4ccccc4)C(=O)[C@@H]3[C@](Cc3ccccc3)(C(=O)OC)N12	3.8	0.68	x	x
25	CC(=O)Nc1ccc(N2CCN(C(=O)c3cccs3)CC2)cc1	-2.3	0.67	-18	0.6
26	COC(=O)[C@@H]1CCCN1Cc1c(C(=O)N2CCCCC2)nc2c(C)cccn12	-1.6	0.73	-3	-0.4
27	OCCNCCCCOc1cccc(Br)c1	1.4	0.68	2	-0.5
28	COc1ccc(CNC(=O)c2cc(C(C)=O)c[nH]2)cc1	-1.6	0.66	-9	0.8
29	O=C(Nc1ccc(NC(=O)c2ccco2)c(Cl)c1)c1cccc([N+](=O)[O-])c1	-2.1	0.64	-7	-2.8
30	CNC(=O)c1cccc2nc3ccccc3nc12	1.8	x	-5	-3.5

cpd	Beta2AR agonist	UCH37 DUB inh	FGF22 binding
19	-11	0.6	i
20	-14	5.1	x
21	13	-3.1	x
22	3	x	i
23	15	-1.5	x
24	-3	0.9	i
25	1	2.5	x
26	5	-1.9	i
27	-2	0.0	i
28	4	2.6	i
29	-2	-0.5	i
30	-3	x	i

Following part
cpd	compound	HNF4A DNA FP	E coli growth	ALR H2O2 inh	LANA-H2A inh
31	O=S(=O)(c1ccc(NC(=S)N/N=C/c2ccc(Oc3ccccc3)cc2)cc1)N1CCOCC1	-1.4	x	-12	5.6
32	O=[N+]([O-])c1ccc(OCC2CC(c3ccccc3)=NO2)cc1 (centres undefined)	8.0	0.65	-4	-2.2
33	CC(Sc1nncn1C)C(=O)Nc1ccc2ccccc2c1 (centres undefined)	-4.6	0.61	x	x
34	O=C(O)C1CC(=O)n2c(nc3ccccc32)S1 (centres undefined)	2.1	x	16	2.5
35	Cc1csc(SCCN2C(=O)c3ccccc3C2=O)n1	1.8	0.71	-5	-0.9
36	Nc1nnc2c(n1)CCCC2	1.6	0.66	-34	5.7
37	CCOC(=O)C1CCCN(S(=O)(=O)CCNC(=O)c2ccc3c(c2)OCO3)C1 (centres undefined)	-0.6	0.71	x	-2.6
38	C=C1CCN([C@@H](CC(C)C)C(=O)NN2CCOCC2)S(=O)(=O)c2ccccc21	2.3	x	0	-2.4
39	Cc1c(Cl)cccc1NC(=O)c1cccnc1	-0.2	0.69	-7	1.9
40	Cc1ccc(/C=C/c2nnc(-c3cccs3)o2)cc1	-2.2	0.6	1	-0.3

cpd	Beta2AR agonist	UCH37 DUB inh	FGF22 binding
31	0	x	i
32	-8	3.7	i
33	-1	-0.1	i
34	-5	-1.0	x
35	-8	0.5	x
36	5	21*	x
37	5	3.1	i
38	0	0.0	i
39	-2	0.7	i
40	-1	-26	x

Continued.
cpd	compound	HNF4A DNA FP	E coli growth	ALR H2O2 inh	LANA-H2A inh
41	COc1ccc2c(c1OC)C(=O)OC2Nc1ccccc1S(=O)(=O)C(F)F (centres undefined)	5.2	0.66	-2	2.1
42	COc1cccc(-c2nc(CS(=O)CC(=O)NC3CCCCC3)c(C)o2)c1 (centres undefined)	-4.0	0.7	99*	4.2
43	CCCn1c(=O)c(C(=O)NNC(=O)c2ccc(Cl)cc2Cl)c(O)c2ccccc21	-3.8	0.71	-1	1.3
44	O=C(CSc1nnc(-c2cccnc2)o1)Nc1nccs1	-1.3	0.71	99*	-1.4
45	Cc1ccc(-c2noc(CCC(=O)NCC3CCN(Cc4cccc(C)c4)CC3)n2)cc1	0.1	0.72	-5	-2.5
46	O=[N+]([O-])c1ccc(O)c(C=Nc2ccc3c(c2)OCCO3)c1	-2.2	0.66	-19	4.7
47	O=C(O)C1CCN(c2ccccc2[N+](=O)[O-])CC1	2.3	0.71	0	1.2
48	COC(=O)CNC(=O)c1ccccc1F	-4.0	0.66	14	5.3
49	Cc1cc(O)c(C(C)C)cc1N=Nc1ccccc1C(=O)O	19	0.66	54	-0.7
50	CNC(=O)NNC(=O)c1nc(-c2ccccc2)c(C)o1	3.1	0.68	x	6.1

cpd	Beta2AR agonist	UCH37 DUB inh	FGF22 binding
41	-8	1.9	x
42	0	2.2	i
43	-3	-10.0	i
44	-9	2.9	i
45	6	2.8	x
46	-2	7.3	x
47	0	1.7	i
48	7	2.8	i
49	9	19	i
50	8	-3.0	i

More compounds follow:
cpd	compound	HNF4A DNA FP	E coli growth	ALR H2O2 inh	LANA-H2A inh
51	O=C(NCCC(NS(=O)(=O)OCC(Cl)(Cl)Cl)c1ccccc1)C(F)(F)F (centres undefined)	0.9	0.64	2	-3.4
52	CC(=O)NC(c1ccc(C)cc1)c1cc([N+](=O)[O-])c2cccnc2c1O (centres undefined)	-2.1	0.68	-7	7.3
53	COc1ccc(-c2nnn(CC(=O)N(CCO)C(C(=O)NC3CCCC3)c3ccc(F)cc3)n2)cc1 (centres undefined)	2.0	0.67	x	2.2
54	CN(C(=O)Nc1ccc(Cl)c(Cl)c1)c1ccccc1C(=O)O	1.4	0.63	-6	-3.9
55	O=C(CCc1nc(-c2ccccc2)no1)Nc1cccnc1	5.3	0.67	-4	-1.7
56	O=C(Nc1nnc2n1CCS2)c1ccc(Br)o1	1.3	x	-2	4.9
57	CCN(CC)CCN1C(=O)C(O)=C(C(=O)c2ccco2)C1c1ccccn1 (centres undefined)	-1.4	0.74	-10	1.5
58	CSc1nc(N2CCOCC2)c2c3c(sc2n1)CCC3	-0.7	0.75	3	-1.3
59	CCC(C)(C)NC(=O)C1CCCN1C(=O)NC1CCCCC1 (centres undefined)	-0.5	0.69	-7	1.9
60	O=C(COC(=O)Cc1ccc(Br)cc1)Nc1ccc(Cl)cn1	2.3	0.7	-12	-3.3
61	O=C(NCc1ccco1)C1CCN(c2nnc(-n3cccc3)s2)CC1	3.1	0.67	-3	-6.6

cpd	Beta2AR agonist	UCH37 DUB inh	FGF22 binding
51	9	11	i
52	4	15	i
53	0	5.2	x
54	-1	-31	x
55	-9	-0.2	i
56	8	x	i
57	-3	17	x
58	0	0.4	x
59	-8	-5.7	i
60	14	0.8	i
61	-15	2.5	i

Only part of the results is shown; the hit share may differ from the screen's.
